Calb biofilm kill: mixtures killing C. albicans biofilm. inhibition, % at 7.6 µM. hit rate 0.02% among 120,000. C. albicans biofilm persisters + clotrimazole, fluorescence viability; primary screen in compound mixtures of four per well;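 active means inhibition above 30.3% in the primary screen of four-compound pools, then above 30% when the compound was retested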;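 further: compounds exposed to preformed 24 h biofilms for 48 h; the number belongs to the whole pool; some results filed as inactive read as strong as hits; inactives centre near 12; 0% = biofilm with clotrimazole alone and 100% = kill control; retested singly at about 60 µM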
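Probe or stimulus – Clotrimazole 50 µg/mL co-treatment · System – C. albicans biofilms · Schedule – 24 h biofilm formation, then 48 h compound exposure, 37 °C · Evaluation – percent inhibition of biofilm viability · Technique – 2-h Alamar Blue fluorescence, 535/590 nm excitation/emission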
Starred values were filed as active, the others as inactive. Some of the compounds tested (hit frequency here may not be typical).

canonical_smiles | Calb biofilm kill
Cc1cccc(NC(=O)C2CC(=O)n3ncnc3N2)c1 (stereo unspecified) | -1
COc1ccccc1N(CC(=O)N/N=C/c1c(O)ccc2ccccc12)S(C)(=O)=O | 8
COc1ccc(CC(=O)O/N=C(\N)c2ccc(OC)cc2)cc1 | 16
C=CCn1c(SCC(=O)NC(=O)c2cccc([N+](=O)[O-])c2)nnc1-c1ccccc1F | 11
O=C(CCN1CCCCCC1)Nc1ccc2c(c1)OCCO2 | 10
CC(C)(CO)NS(=O)(=O)c1ccc2c(c1)C(=O)c1cc(S(=O)(=O)NC(C)(C)CO)ccc1-2 | 28
COC(=O)c1cc(NC(=S)Nc2cc(Cl)cc(Cl)c2)cc(C(=O)OC)c1 | 5
Cc1ccc(-n2nc3ccc(NC(=O)C(C)C)cc3n2)cc1 | -8
CCOC(=O)c1cn2nc(Oc3ccc(C)cc3)ccc2n1 | 12
O=C(O)c1ccc(/C=N/Nc2nnnn2-c2ccccc2)cc1 | 3
CCCN1C(=O)/C(=c2\s/c(=C3\C=Cc4ccccc4N3CC)c(=O)n2-c2ccccc2)SC1=S | 9
CNC(=O)COC(=O)c1ccccc1NC(=O)c1ccco1 | 9
C=CCN(CC=C)Cc1nc(N)nc(Nc2ccccc2C)n1 | 14
O=C(NCCCN1CCOCC1)C(=O)N/N=C/c1ccccc1Cl | 9
O=C(CCC1CCCN(C(=O)c2ccsc2)C1)NCc1ccc(F)c(F)c1 (stereo unspecified) | 13
COCCn1c(-c2ccc(C)cc2)nc2oc3cc(OC)ccc3c(=O)c2c1=O | 13
CC(C)(C)N(Cc1cc2ccccc2[nH]c1=O)C(=O)c1cccc([N+](=O)[O-])c1 | 29
O=[N+]([O-])c1cccc(-c2nnc(CNC3CC3)o2)c1 | 10
O=C(CN1CCSCC1)N/N=C/c1ccc(Cl)cc1 | 5
Cc1cc(C)c2cc(CN(CCN(C)C)C(=O)Nc3ccccc3Cl)c(=O)[nH]c2c1 | 20
Clc1ccc(N2CCOCC2)nn1 | 15
Cc1cc(-n2c(C)c3c(C)nnc(C)c3c2C)ccc1N | 17
COc1ccc(C(=O)OCC(=O)NCC2CCCO2)cc1S(=O)(=O)N1CCCc2ccccc21 (stereo unspecified) | -6
CCOC(=O)c1sc2ccccc2c1OC(=O)c1ccccc1OC | 8
O=C(NCCO)Nc1ccc2nsnc2c1 | -14
CSCCC1NC(=O)N(CC(=O)Nc2c(C(C)C)cccc2C(C)C)C1=O (stereo unspecified) | 6
COc1ccc(/C=C(\NC(=O)c2ccccc2)C(=O)N/N=C/c2sccc2C)cc1 | 23
Cc1cc(=O)[nH]c(NN=C(CC(C)C)CC(C)C)n1 | 3
CC(C)(C)NC(=O)C(=O)NN=C1CCCCCCCCCCC1 | 20
Nc1ccc(N=Nc2ccccc2Cl)c(N)n1 | 11
N#CCCCN1C(=O)C(=C(C#N)C#N)c2ccccc21 | 28
CCCNCc1cc(OCC)c(OCC(=O)Nc2ccccc2)cc1Br | 12

Some of these compounds in order of molar mass, smallest number first.
canonical_smiles | Calb biofilm kill
Clc1ccc(N2CCOCC2)nn1 | 15
O=C(NCCO)Nc1ccc2nsnc2c1 | -14
Nc1ccc(N=Nc2ccccc2Cl)c(N)n1 | 11
O=[N+]([O-])c1cccc(-c2nnc(CNC3CC3)o2)c1 | 10
Cc1cc(=O)[nH]c(NN=C(CC(C)C)CC(C)C)n1 | 3
Cc1cc(-n2c(C)c3c(C)nnc(C)c3c2C)ccc1N | 17
Cc1ccc(-n2nc3ccc(NC(=O)C(C)C)cc3n2)cc1 | -8
CCOC(=O)c1cn2nc(Oc3ccc(C)cc3)ccc2n1 | 12
O=C(CN1CCSCC1)N/N=C/c1ccc(Cl)cc1 | 5
CNC(=O)COC(=O)c1ccccc1NC(=O)c1ccco1 | 9
O=C(O)c1ccc(/C=N/Nc2nnnn2-c2ccccc2)cc1 | 3
C=CCN(CC=C)Cc1nc(N)nc(Nc2ccccc2C)n1 | 14
CC(C)(C)NC(=O)C(=O)NN=C1CCCCCCCCCCC1 | 20
O=C(NCCCN1CCOCC1)C(=O)N/N=C/c1ccccc1Cl | 9
CCOC(=O)c1sc2ccccc2c1OC(=O)c1ccccc1OC | 8
CC(C)(C)N(Cc1cc2ccccc2[nH]c1=O)C(=O)c1cccc([N+](=O)[O-])c1 | 29
O=C(CCC1CCCN(C(=O)c2ccsc2)C1)NCc1ccc(F)c(F)c1 (stereo unspecified) | 13
COC(=O)c1cc(NC(=S)Nc2cc(Cl)cc(Cl)c2)cc(C(=O)OC)c1 | 5
COc1ccc(/C=C(\NC(=O)c2ccccc2)C(=O)N/N=C/c2sccc2C)cc1 | 23
CCCNCc1cc(OCC)c(OCC(=O)Nc2ccccc2)cc1Br | 12
Cc1cc(C)c2cc(CN(CCN(C)C)C(=O)Nc3ccccc3Cl)c(=O)[nH]c2c1 | 20
COc1ccc(C(=O)OCC(=O)NCC2CCCO2)cc1S(=O)(=O)N1CCCc2ccccc21 (stereo unspecified) | -6
CCCN1C(=O)/C(=c2\s/c(=C3\C=Cc4ccccc4N3CC)c(=O)n2-c2ccccc2)SC1=S | 9

The results go on.
canonical_smiles | Calb biofilm kill
CCN(CC)S(=O)(=O)c1ccc2nc(NC(=O)c3ccco3)sc2c1 | 17
CCCCNC(=O)Nc1ncn[nH]1 | 21
COc1ccccc1/C=C(/CC(=O)NCc1ccccc1)c1nc2ccccc2s1 | -1
O=C(Oc1cccc([N+](=O)[O-])c1)N1CCCCC1 | -5
Cc1sc2nc(C)n(/N=C/N(C)C)c(=O)c2c1C | 22
CCOC(=O)C1(CCOC)CCN(Cc2nc(C(C)C)cs2)CC1 | 10
C[C@H](CO)NC(=O)[C@H](C)[C@H]1C[C@]1(C)[C@H](NC(=O)OCc1ccccc1)c1ccccc1 | 15
Nc1c(N2CCCC2)c2ccccc2oc1=O | 3
O=C(C1CCCCC1)N1CCc2[nH]c3ccc(F)cc3c2C1 | 27
COC(=O)c1c(NC(=O)CSc2ncnc3[nH]ncc23)sc2c1CCC2 | 14
Cc1cc(C(=O)OCC(=O)N2CCOCC2)ccc1[N+](=O)[O-] | 10
O=C(Nc1nnc(-c2ccco2)o1)c1ccc2ccccc2c1 | 13
COc1cccc(NC(=O)CSc2nc3c(oc4ccccc43)c(=O)[nH]2)c1 | 14
Cc1ccc2nc(-c3ccncc3)c(NC3CCCC3)n2c1 | 15
COc1ccc(C2=NNC(c3cccnc3)=Nc3ccc(OC)cc32)cc1 | 1
CCNS(=O)(=O)c1ccc2nc(NC(=O)/C=C/c3cc(OC)c(OC)c(OC)c3)sc2c1 | 8
Nn1c(C2CCCCC2)nc2ccccc2c1=O | 18
CC1CCCCN1CC(=O)NC(c1ccccc1)c1ccccc1 (stereo unspecified) | 17
CC(=O)OC(C(=O)N1CCOCC1)c1c(F)cccc1F (stereo unspecified) | 20
CCCSc1nc2ccccc2n1CC(=O)O | 8
CC(C)CNC(=O)COC(=O)/C=C/c1ccco1 | 4
CCN(CC)CCCNC(=O)C(C)n1c2ccccc2c2nc(=O)cc(C)n21 (stereo unspecified) | 23
Cc1ccc(CNC(=S)Nc2cc(C(=O)O)ccc2C)cc1 | 10
CSc1nnc(C)c(=O)n1COC(=O)c1ccc(S(=O)(=O)N2CCCC2)cc1 | 18

Sorted by heavy-atom count (lowest first): some entries from above.
canonical_smiles | Calb biofilm kill
O=C(Oc1cccc([N+](=O)[O-])c1)N1CCCCC1 | -5
O=[N+]([O-])c1cccc(-c2nnc(CNC3CC3)o2)c1 | 10
N#CCCCN1C(=O)C(=C(C#N)C#N)c2ccccc21 | 28

Next records:
canonical_smiles | Calb biofilm kill
CCn1c(O)c(N=Nc2ccc(Cl)c(C(=O)O)c2)c2ccccc21 | 5
CC(C)CC(=O)NC(=S)NNC(=O)c1ccc([N+](=O)[O-])cc1 | 19
Cc1ccc(Nc2nc(NCc3ccco3)c3ccccc3n2)cc1 | 19
NNC(=O)c1ccc(N2CCCCCC2)c([N+](=O)[O-])c1 | 13
CCOC(=O)NC(=O)C(/C=N/c1sccc1C(=O)OC)=C(\C)O | 8
O=C(N/N=C/c1ccc(N2CCOCC2)o1)c1cccc(C(F)(F)F)c1 | 7
CC(=O)c1ccc(N2CCN(C(=O)COc3ccccc3F)CC2)c(F)c1 | 4
COc1cccc(-c2nnc(SC(C(=O)c3c[nH]c4ccccc34)c3ccccc3)n2C)c1 (stereo unspecified) | 8
Cc1cc(C(=O)COC(=O)c2ccc3c(c2)OCO3)c(C)n1CC1CCCO1 (stereo unspecified) | 6
O=C1N=C(N2CCOCC2)S/C1=C\c1ccc(-c2ccccc2Cl)o1 | 19
Fc1ccc2nc(Nc3nc4cc5c(cc4s3)OCCO5)sc2c1 | 12
COC(=O)c1c(C)[nH]c(C(=O)OCC(=O)N2c3ccccc3NC(=O)C2(C)C)c1C | 11
Cc1ccc(S(=O)(=O)Nn2c(O)c(C=C3N=c4ccccc4=N3)sc2=S)cc1 | 5
Cc1cc(/C=C2/C(=O)N(C)C(=S)N2C)ccc1N1CCCC1 | 10
Nc1nc(NCc2ccc(Cl)cc2)nc(NCCO)c1[N+](=O)[O-] | 6
CCn1c(N)c(Br)c(=O)[nH]c1=O | 18
O=c1oc2ccccc2c2[nH]ccc12 | 12
O=C(/C=C/c1ccc(O)c(O)c1)OC1C(O)CC(OC(=O)/C=C/c2ccc(O)c(O)c2)(C(=O)O)CC1O (stereo unspecified) | 29
C=CCSc1n[nH]c(=O)n1-c1cccc(C(F)(F)F)c1 | 15
COc1ccc(CN2CCN(C(=O)c3ccco3)CC2)cc1OC | 15
Cc1cc(NS(=O)(=O)c2ccc(NC(=O)CSc3nnc(-c4ccco4)n3Cc3ccco3)cc2)nc(C)n1 | -1
O=[N+]([O-])c1cccc(S(=O)(=O)c2cccc([N+](=O)[O-])c2)c1 | 3
CC(=O)Nc1ccccc1OC(C)C(=O)NC(C)c1ccc(F)cc1 (stereo unspecified) | -2
CNc1nc(-c2ccc3c(c2)CCN3C(=O)c2ccc(F)cc2)cs1 | 7
Cn1c(NC(=O)C[n+]2cc(-c3ccccc3)n3c2CCC3)cc(=O)n(C)c1=O | 7
COc1cc(NC(=O)c2ccccc2F)ccc1NC(=O)c1ccccc1Cl | 18
Cc1ccccc1-c1ccc(/C=C2/SC(N3CCOCC3)=NC2=O)o1 | 15
O=C(c1ccncc1)N1CCN(C2CCCCC2)CC1 | 15
Cn1cccc1C(C#N)c1ncc(C(F)(F)F)cc1Cl (stereo unspecified) | -21
O=C(Nc1ccc(N2CCOCC2)nc1N1CCOCC1)c1cccc(C(F)(F)F)c1 | -3
CC1Cc2ccccc2N1C(=O)CCn1c(=O)sc2ccccc21 (stereo unspecified) | 15
Cc1cc(=O)n2[nH]c(N)c(N=Nc3ccccc3F)c2n1 | 9
CC(C)CC(=O)N1CCN(S(=O)(=O)c2ccc(Cl)cc2)CC1 | 22
CCN(CC)C(=O)CN1C(=O)NC2(CCc3ccccc3C2)C1=O (stereo unspecified) | 14
c1ccc(-c2cc(-c3ccccc3)on2)cc1 | 20
CN(C)C(=O)CSc1nc2ccccc2n1Cc1ccccc1 | 2
Cc1noc2ncnc(N3CCCC3)c12 | 7
O=c1cc(CN2CCN(S(=O)(=O)c3ccccc3)CC2)nc2sccn12 | 13
COC(=O)c1c(NC(=O)CC2SC(N)=NC2=O)sc(C)c1C (stereo unspecified) | 11
COc1ccc(-n2cnc3c(sc4nc(N5CCOCC5)c5c(c43)CCCC5)c2=O)cc1 | -1
Cc1cc(C(=O)CSc2nnc(N)s2)c(C)n1Cc1cccs1 | 11
COc1ccc(CSCCNC(=S)Nc2ccccc2)cc1Cl | 8
NS(=O)(=O)c1ccc(CNC(=O)c2scc3c2CCCC3)cc1 | 3
O=C(C[n+]1ccc(/C=N/O)cc1)N(Cc1ccccc1)Cc1ccccc1 | 17
O=C(Nc1cccc(N2C(=O)C3C4C=CC(C4)C3C2=O)c1)c1cccs1 (stereo unspecified) | 29
CC1=CC2=NC(=O)/C(=C/c3cccn3Cc3ccccc3)C(=N)N2O1 | 23
C#CCOCCOCCOCCNc1nc(N2CCN(C(=O)[C@H]([C@@H](C)CC)n3cc([C@@H](N)CO)nn3)CC2)nc(N2CCN(C(=O)[C@H](CCCCN)n3cc([C@@H](N)C(C)CC)nn3)CC2)n1 (stereo partly specified) | 16
Cc1ccc(S(=O)(=O)Nc2cc3c(C(=O)Nc4ccccc4)c(C)oc3c3ccccc23)cc1 | 19
COc1ccc(C)cc1NC(=O)N1CCC(CO)(CC2CCCCO2)CC1 (stereo unspecified) | 11
Cc1cc(C(=O)N/N=C/c2ccc(OC(=O)c3ccccc3Br)cc2)n[nH]1 | 31
COc1ccc(CC(=O)n2[nH]c(=O)ccc2=O)cc1OC | 15
CC(C)(CNC(=O)/C=C/c1ccc(F)cc1)CNC(=O)/C=C/c1ccc(F)cc1 | 25
COC(=O)c1ccc(COC(=O)CCC(=O)c2cccs2)cc1 | -10
O=C(CC1N=C(Cc2ccccc2)NNC1=O)N/N=C/c1ccc([N+](=O)[O-])cc1 (stereo unspecified) | 3
O=C(Nc1ccc(Cl)c(Cl)c1)Nc1ccccc1O | 5
